MbtI inh: MbtI salicylate synthase inhibition. inhibition, %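 (about 17 µg/mL by stock and volumes)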. 100,000 compounds, 0.89% hits. AID 493033. purified MbtI enzyme, fluorescence intensity read-out;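 active = above 50% in both replicates, above 80% if mildly self-fluorescent; inactive = the rest, strongly fluorescent compounds included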;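 also: 0% = mean of negative and 100% = mean of positive controls; one replicate is shown; some compounds called inactive have numbers as strong as hits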
Target sequence (P9WFX0 whole entry, looked up): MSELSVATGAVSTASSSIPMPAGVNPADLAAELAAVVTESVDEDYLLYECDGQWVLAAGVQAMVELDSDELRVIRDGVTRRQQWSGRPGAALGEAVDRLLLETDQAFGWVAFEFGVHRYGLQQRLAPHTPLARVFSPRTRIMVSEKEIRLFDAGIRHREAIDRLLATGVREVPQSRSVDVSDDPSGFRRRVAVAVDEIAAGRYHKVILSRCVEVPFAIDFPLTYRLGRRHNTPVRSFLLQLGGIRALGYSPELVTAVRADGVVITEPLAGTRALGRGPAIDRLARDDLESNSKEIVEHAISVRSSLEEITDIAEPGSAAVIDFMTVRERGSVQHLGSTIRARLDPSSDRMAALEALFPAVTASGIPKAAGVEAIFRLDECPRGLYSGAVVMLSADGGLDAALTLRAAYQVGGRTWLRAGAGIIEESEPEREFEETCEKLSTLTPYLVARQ
MenB inh: Mtb MenB enzyme inhibition; P9WNP5; 100,000 compounds, 0.43% hits; AID 540299; MenB enzyme assay, absorbance read-out; some hits fall short of the stated cut; inhibition, %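 (about 12 µg/mL by stock and volumes)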;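 active = mean of two replicates above 30%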;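 also: 0% = no compound and 100% = wells with inactive enzyme; the first replicate is given; strong numbers were not always called active; inactives centre near -10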
Polio RdRp inh: inhibitors of poliovirus RNA polymerase binding and polymerization. P03300. poliovirus polymerase elongation, fluorescence polarization; hits give low values. % elongation, % (compound at 16.7 µg/mL). 150,000 compounds, 0.66% hits. AID 588519; in the data active = % elongation below about 90%; also: some results filed as inactive read as strong as hits
Target sequence (P03300 1749-2209 limits assumed): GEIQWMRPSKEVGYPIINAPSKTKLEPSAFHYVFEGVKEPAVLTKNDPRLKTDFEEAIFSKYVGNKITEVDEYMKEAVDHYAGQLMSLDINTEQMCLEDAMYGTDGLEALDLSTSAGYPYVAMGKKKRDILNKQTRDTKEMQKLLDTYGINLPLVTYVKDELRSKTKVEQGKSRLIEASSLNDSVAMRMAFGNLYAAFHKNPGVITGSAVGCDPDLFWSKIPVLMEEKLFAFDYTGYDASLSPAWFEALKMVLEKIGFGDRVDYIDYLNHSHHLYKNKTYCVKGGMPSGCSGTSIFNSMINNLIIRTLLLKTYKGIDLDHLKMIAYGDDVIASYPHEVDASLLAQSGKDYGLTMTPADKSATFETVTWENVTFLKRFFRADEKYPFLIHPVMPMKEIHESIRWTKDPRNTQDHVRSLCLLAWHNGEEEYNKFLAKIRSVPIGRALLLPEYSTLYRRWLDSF
Polio RdRp inh intensity: recorded beside Polio RdRp inh, whose call it bears; % elongation; measured here: total intensity read-out; formula for this scale not given here;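 total fluorescence in place of polarization; lower means less elongation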
* = called active by the depositor. This is a random part of the collection; about 1.7% have a hit in one of these screens.

For O=C(c1cc(-c2ccccc2)nn1-c1ccccc1)N(C1CC1)C1CCS(=O)(=O)C1 (configuration not stated) the results were MbtI inh -9.1, MenB inh -19.9, Polio RdRp inh 99.0 and Polio RdRp inh intensity 101.0.
Screening CCC(C)c1ccc(NC(=O)N(C)C)cc1 (configuration not stated) returned MbtI inh -8.0, MenB inh -20.6, Polio RdRp inh 104.0 and Polio RdRp inh intensity 101.0.
`O=C(NC(=S)Nc1ccc(O)c(-c2nc3ccccc3o2)c1)c1ccccc1` gave MbtI inh -3.1, MenB inh -20.2, Polio RdRp inh 100.0 and Polio RdRp inh intensity 107.0.
For COc1ccc(S(=O)(=O)N2CCN(c3cccc(Cl)c3C)CC2)cc1OC the results were MbtI inh -15.9, MenB inh -4.7, Polio RdRp inh 101.0 and Polio RdRp inh intensity 101.0.
Screening CCOc1nc2cnccc2n(Cc2ccc(C)cc2)c1=O returned MbtI inh -19.2, MenB inh -7.7, Polio RdRp inh 101.0 and Polio RdRp inh intensity 103.0.
`Cc1ccccc1C(NC(N)=O)c1ccccc1` (configuration not stated) gave MbtI inh -8.9, MenB inh -3.0, Polio RdRp inh 99.0 and Polio RdRp inh intensity 102.0.
For CCCOc1cc(N)ccc1C(=O)OCCN(CC)CC the results were MbtI inh 10.3, MenB inh -13.5, Polio RdRp inh 99.0 and Polio RdRp inh intensity 101.0.
Cc1ccc(NC(=O)Sc2ccc(Cl)cc2)cc1 was read as MbtI inh 57.0*, MenB inh -12.7, Polio RdRp inh 96.0 and Polio RdRp inh intensity 99.0.
Screening Oc1ccc(C=NC2CCCCC2)cc1 returned MbtI inh 11.7, MenB inh -52.1, Polio RdRp inh 103.0 and Polio RdRp inh intensity 101.0.
Screening CC(C)=NOC(=O)c1cn(-c2ccccc2)nc1-c1cccs1 returned MbtI inh -2.5, MenB inh -49.9, Polio RdRp inh 103.0 and Polio RdRp inh intensity 107.0.
`COc1ccc(Cl)c(N2CC(c3nc4ccccc4n3C(C)C)CC2=O)c1` (configuration not stated) gave MbtI inh -1.3 and MenB inh 3.6.
`Cc1cccc(NC(=O)C2c3ccccc3Oc3ccccc32)c1` gave MbtI inh -18.2, MenB inh -12.7, Polio RdRp inh 104.0 and Polio RdRp inh intensity 103.0.
For O=C(O)CCNC(=O)c1ccco1 the results were MbtI inh 1.8, MenB inh -31.5, Polio RdRp inh 99.0 and Polio RdRp inh intensity 97.0.
CN(C)c1ccc(C2(C)Oc3ccccc3C(=O)N2c2ccccc2)cc1 (configuration not stated) was read as MbtI inh 46.1, MenB inh -4.8, Polio RdRp inh 108.0 and Polio RdRp inh intensity 108.0.
For O=C(CCn1c(=O)oc2ccccc21)N1CCN(Cc2ccc3c(c2)OCO3)CC1 the results were MbtI inh 0.1, MenB inh 10.3, Polio RdRp inh 108.0 and Polio RdRp inh intensity 127.0.
CCCn1c(C)cc(C(=O)CSc2nnc(-c3cccc(S(=O)(=O)N(CC)CC)c3)o2)c1C was read as MbtI inh -6.7, MenB inh 2.6, Polio RdRp inh 103.0 and Polio RdRp inh intensity 108.0.
`O=c1oc2cc(O)ccc2c2c1CCC2` gave MbtI inh 89.5, MenB inh -7.3, Polio RdRp inh 102.0 and Polio RdRp inh intensity 102.0.
Screening CC(C)(C)N1C(=O)c2ccc(-c3nc4ccccc4o3)cc2C1=O returned MbtI inh -26.0, MenB inh -26.1, Polio RdRp inh 102.0 and Polio RdRp inh intensity 103.0.
`COc1ccc(C[C@H](N)C(=O)N[C@@H]2[C@@H](CO)OC(n3cnc4c(N(C)C)ncnc43)[C@@H]2O)cc1` (some centres not stated) gave MbtI inh -10.5, MenB inh -2.9, Polio RdRp inh 99.0 and Polio RdRp inh intensity 101.0.
`CC1=C(C#N)C(C)(C)C(C#N)=C(C)N1` gave MbtI inh -18.6, MenB inh -22.6, Polio RdRp inh 99.0 and Polio RdRp inh intensity 100.0.
Screening Cc1ccccc1CN1CCN(C(=O)c2ccco2)CC1 returned MbtI inh 0.6, MenB inh -22.2, Polio RdRp inh 102.0 and Polio RdRp inh intensity 102.0.
`N#CCCn1cc(C(N)=O)c(-c2ccccc2)n1` gave MbtI inh -3.0, MenB inh 15.1, Polio RdRp inh 101.0 and Polio RdRp inh intensity 102.0.
`CSc1ccc(/C=C2/NC(=O)NC2=O)cc1` gave MbtI inh -10.6, MenB inh -8.2, Polio RdRp inh 102.0 and Polio RdRp inh intensity 104.0.
Screening CNc1ccc(C(=O)CC(O)CCC(C)C2OC(=O)CC(O)CC(=O)CC(O)CC(O)CC(O)CC(O)CC3(O)CC(O)C(C(=O)OC)C(CC(O[C@@H]4O[C@H](C)[C@@H](O)[C@H](N)[C@@H]4O)/C=C/C=C/C=C/C=C/C=C/C=C/C=C/C2C)O3)cc1 (some centres not stated) returned MbtI inh -2.8, MenB inh 9.4, Polio RdRp inh 100.0 and Polio RdRp inh intensity 100.0.
`CCCCNC(=O)Cn1c(-c2ccc(OC)cc2)noc1=O` gave MbtI inh -3.1, MenB inh 1.4, Polio RdRp inh 100.0 and Polio RdRp inh intensity 103.0.
COc1ccc(C(O)c2nccn2Cc2ccccc2)cc1OC (configuration not stated) was read as MenB inh -9.2, Polio RdRp inh 106.0 and Polio RdRp inh intensity 106.0.
`O=C(Nc1nc(CN2CCCCC2)cs1)c1ccc(-n2cccn2)cc1` gave MbtI inh -2.8, MenB inh -8.3, Polio RdRp inh 113.0 and Polio RdRp inh intensity 129.0.
Cc1nc2ccc(C(=O)N3CCN(Cc4ccccc4)CC3)cc2[nH]1 was read as MbtI inh 6.5, MenB inh -38.3, Polio RdRp inh 104.0 and Polio RdRp inh intensity 103.0.
CCc1cc(=O)[nH]c(SC)n1 was read as MbtI inh 13.4, MenB inh -70.7, Polio RdRp inh 105.0 and Polio RdRp inh intensity 99.0.
Screening O=C(Cc1csc(N2CCCC2=O)n1)Oc1ccc2c(c1)OCO2 returned MbtI inh 8.5, MenB inh -6.5, Polio RdRp inh 102.0 and Polio RdRp inh intensity 107.0.
Screening C=CCN(CC=C)C(=S)Nc1ccc(OC)cc1 returned MbtI inh 3.6, MenB inh 8.8, Polio RdRp inh 97.0 and Polio RdRp inh intensity 104.0.
COc1ccc2c(c1)nc(SCc1ccccc1)n2C was read as MbtI inh -4.8, MenB inh -6.7, Polio RdRp inh 101.0 and Polio RdRp inh intensity 100.0.
`Cc1[nH]c2ccc(C(=O)OCC(=O)NC3CC3)cc2c1C` gave MbtI inh -23.2, MenB inh 0.3, Polio RdRp inh 102.0 and Polio RdRp inh intensity 104.0.
`CC1CCC(NC(=O)C(C)n2ncn3cccc3c2=O)CC1` (configuration not stated) gave MbtI inh -18.3, MenB inh 2.6, Polio RdRp inh 100.0 and Polio RdRp inh intensity 102.0.
O=C(Nc1ccc(-c2n[nH]c(=S)o2)cc1)c1ccccc1 was read as MbtI inh 27.9, MenB inh -3.3, Polio RdRp inh 99.0 and Polio RdRp inh intensity 103.0.
Screening CC1(C)Oc2ccc(C(=O)Nc3ccccc3)cc2N(CC(=O)N2CCCC2)C1=O returned MbtI inh -1.5, MenB inh -54.9, Polio RdRp inh 105.0 and Polio RdRp inh intensity 101.0.
For CCn1c(=O)c(C(=O)CSc2nnnn2Cc2cccs2)c(N)n(Cc2ccccc2)c1=O the results were MbtI inh -0.2, MenB inh -2.9, Polio RdRp inh 109.0 and Polio RdRp inh intensity 116.0.
Screening COc1ccc(CNCc2ccc3c(c2)OCO3)cc1 returned MbtI inh 11.8, MenB inh -6.1, Polio RdRp inh 101.0 and Polio RdRp inh intensity 102.0.
Cc1nc2ccccc2n1CCOc1ccc(Br)cc1 was read as MbtI inh -10.5, Polio RdRp inh 100.0 and Polio RdRp inh intensity 106.0.
For Cc1cccc(C)c1OCC(=O)Nc1c(C)nn(C)c1C the results were MbtI inh -14.6, MenB inh -23.8, Polio RdRp inh 102.0 and Polio RdRp inh intensity 102.0.

Overlap with the part before: six entries, followed by the next part.
O=C(Nc1ccc(-c2n[nH]c(=S)o2)cc1)c1ccccc1 was read as MbtI inh 27.9, MenB inh -3.3, Polio RdRp inh 99.0 and Polio RdRp inh intensity 103.0.
Screening CC1(C)Oc2ccc(C(=O)Nc3ccccc3)cc2N(CC(=O)N2CCCC2)C1=O returned MbtI inh -1.5, MenB inh -54.9, Polio RdRp inh 105.0 and Polio RdRp inh intensity 101.0.
For CCn1c(=O)c(C(=O)CSc2nnnn2Cc2cccs2)c(N)n(Cc2ccccc2)c1=O the results were MbtI inh -0.2, MenB inh -2.9, Polio RdRp inh 109.0 and Polio RdRp inh intensity 116.0.
Screening COc1ccc(CNCc2ccc3c(c2)OCO3)cc1 returned MbtI inh 11.8, MenB inh -6.1, Polio RdRp inh 101.0 and Polio RdRp inh intensity 102.0.
Cc1nc2ccccc2n1CCOc1ccc(Br)cc1 was read as MbtI inh -10.5, Polio RdRp inh 100.0 and Polio RdRp inh intensity 106.0.
For Cc1cccc(C)c1OCC(=O)Nc1c(C)nn(C)c1C the results were MbtI inh -14.6, MenB inh -23.8, Polio RdRp inh 102.0 and Polio RdRp inh intensity 102.0.
Screening O=C1C2C3C=CC(C3)C2C(=O)N1CN1CCCCCC1 (configuration not stated) returned MbtI inh 0.2, MenB inh -9.4, Polio RdRp inh 101.0 and Polio RdRp inh intensity 100.0.
`Cc1cc2nc(Sc3ccccc3Cl)cc(=O)n2o1` gave MbtI inh 29.9, MenB inh -18.1, Polio RdRp inh 105.0 and Polio RdRp inh intensity 102.0.
`Nc1ncnc2c1ncn2Cc1ccccc1` gave MbtI inh -4.7, MenB inh -4.9, Polio RdRp inh 102.0 and Polio RdRp inh intensity 103.0.
`COc1ccc2cc([C@@H](C)C(=O)O)ccc2c1` gave MbtI inh -18.2, MenB inh -4.7, Polio RdRp inh 100.0 and Polio RdRp inh intensity 100.0.
`O=C(Cc1ccccc1)OCC(=O)C12CC3CC(CC(C3)C1)C2` gave MbtI inh -12.3, Polio RdRp inh 103.0 and Polio RdRp inh intensity 101.0.
Screening O=C(NCc1cccs1)C1CCC(CNS(=O)(=O)c2ccccc2)CC1 (configuration not stated) returned MbtI inh -15.8, MenB inh -7.9, Polio RdRp inh 100.0 and Polio RdRp inh intensity 102.0.
Screening CCOc1ccc2nc(NC(=O)C(CC)CC)sc2c1 returned MbtI inh 6.8, Polio RdRp inh 103.0 and Polio RdRp inh intensity 105.0.
For Cc1ccc(NC(=O)CCS(=O)(=O)c2cc3[nH]c(=O)c(=O)[nH]c3cc2C)cc1 the results were MbtI inh -39.6, MenB inh -9.8, Polio RdRp inh 103.0 and Polio RdRp inh intensity 104.0.
Screening O=C(O)/C=C/c1coc2ccccc2c1=O returned MbtI inh 11.9, MenB inh -6.4, Polio RdRp inh 103.0 and Polio RdRp inh intensity 101.0.
Screening O=C(NCC1OCCc2ccccc21)c1ccc(NC(=O)c2ccco2)cc1 (configuration not stated) returned MbtI inh -175.3, MenB inh -22.0, Polio RdRp inh 106.0 and Polio RdRp inh intensity 109.0.
Screening O=P(O)(NC1CCCCC1)NC1CCCCC1 returned MbtI inh -8.5, MenB inh -15.0, Polio RdRp inh 108.0 and Polio RdRp inh intensity 101.0.
Screening N#C/C(C(=O)N1CCCC1)=c1/s/c(=C\c2ccccn2)c(=O)n1-c1ccccc1 returned MbtI inh -5.7, MenB inh -64.6, Polio RdRp inh 93.0 and Polio RdRp inh intensity 128.0.
`Cc1cc(NC(=O)c2cc3ccc4cccnc4c3[nH]2)no1` gave MbtI inh 2.7, MenB inh 5.3, Polio RdRp inh 99.0 and Polio RdRp inh intensity 102.0.
O=C1C=CC(=CN(O)c2ccccc2)C=C1 was read as MbtI inh 11.4, MenB inh -27.8, Polio RdRp inh 99.0 and Polio RdRp inh intensity 102.0.
For S=c1nc[nH]c2c1nnn2Cc1ccccc1Cl the results were MbtI inh -9.7, MenB inh -13.0, Polio RdRp inh 103.0 and Polio RdRp inh intensity 98.0.
For COc1ccccc1OCc1nc2ccccc2s1 the results were MbtI inh 39.8, Polio RdRp inh 103.0 and Polio RdRp inh intensity 105.0.
Screening CCOC(=O)c1c(C)oc2ccc(OC(=O)NC(=O)N(C3CCCCC3)S(C)(=O)=O)cc12 returned MbtI inh -17.8, MenB inh -20.2, Polio RdRp inh 99.0 and Polio RdRp inh intensity 102.0.
`CS(=O)(=O)c1scc(-c2cccs2)c1C#N` gave MbtI inh -8.4, MenB inh 2.7, Polio RdRp inh 102.0 and Polio RdRp inh intensity 108.0.
For CCCC(CCC)C(=O)Nc1cccc(-c2cn3c(n2)SCC3)c1 the results were MbtI inh 4.7, MenB inh -25.5, Polio RdRp inh 106.0 and Polio RdRp inh intensity 98.0.
CN(C)CCCn1c(=N)n(CC(O)C(C)(C)C)c2ccccc21 (configuration not stated) was read as MbtI inh -13.4, MenB inh -18.0, Polio RdRp inh 99.0 and Polio RdRp inh intensity 98.0.
c1ccc(-c2nnc(CN3CCCc4ccccc43)o2)cc1 was read as MbtI inh -3.2, MenB inh -0.2, Polio RdRp inh 102.0 and Polio RdRp inh intensity 104.0.
`CCOC(=O)c1cnc(Nc2nc3ccccc3o2)nc1CSC(=S)N1CCCCC1` gave MbtI inh -8.2, MenB inh -32.4, Polio RdRp inh 101.0 and Polio RdRp inh intensity 102.0.
Screening O=C(N=c1nc2ccccn2s1)c1ccccc1 returned MbtI inh 2.9, Polio RdRp inh 102.0 and Polio RdRp inh intensity 106.0.
O=C(OCc1cccc(Cl)c1)c1ccccc1O was read as MbtI inh 27.8, MenB inh -3.9, Polio RdRp inh 98.0 and Polio RdRp inh intensity 102.0.

Screening results: PubChem BioAssay, ICCB-Longwood Screening Facility, Harvard Medical School
